From PubChem
D2 ag: agonists of human D2 dopamine receptor (beta-arrestin); DiscoveRx PathHunter D2 beta-arrestin, luminescence, 90 min; 100% = 57 uM dopamine signal; activation, % (no concentration beside the values); 0.084% of 360,000 active; AID 624465; in the data active = activation above about 40%; inconclusive = about 15% to 40%; inactive = below about 15%; further: compound concentration not given in the record; the text of the record calls up to 30% inactive
Target sequence (P14416 whole entry, looked up): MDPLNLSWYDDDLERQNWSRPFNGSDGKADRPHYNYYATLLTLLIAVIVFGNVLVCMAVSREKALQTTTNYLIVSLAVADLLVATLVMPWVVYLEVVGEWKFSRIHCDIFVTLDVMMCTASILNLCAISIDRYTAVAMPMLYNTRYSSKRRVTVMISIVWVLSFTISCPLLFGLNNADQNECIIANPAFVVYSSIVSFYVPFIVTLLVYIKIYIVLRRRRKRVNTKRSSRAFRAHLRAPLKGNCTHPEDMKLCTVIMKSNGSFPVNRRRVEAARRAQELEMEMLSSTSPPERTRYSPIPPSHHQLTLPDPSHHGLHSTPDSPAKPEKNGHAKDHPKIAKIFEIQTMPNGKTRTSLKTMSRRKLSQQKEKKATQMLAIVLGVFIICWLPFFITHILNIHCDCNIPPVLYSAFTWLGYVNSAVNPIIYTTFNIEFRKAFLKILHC
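Agonist mode: compounds alone added to overnight-plated D2 PathHunter cells for 90 min at 37 C, with 57 uM final dopamine (EC100) defining full response. Beta-arrestin recruitment detected by chemiluminescent reagent, read after 1 h at ambient temperature.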
CtBP-E1A inh: CtBP/E1A binding inhibition; AlphaScreen GST-E1A/His-CtBP binding, 1536-well; active compounds read low; control for the full effect not named in the record; activity change, % (test concentration not listed); AID 651724; 0.49% of 340,000 active; in the data active means activity change below about -65%; inconclusive means about -30% to -65%; inactive means above about -30%; further: on the % scale 0 is the no-effect control and ±100 the full control effect
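GST-E1A and His-tagged CtBP (125 nM each as 5X stock) were preincubated with pin-transferred compound for 2 h at 37 °C in the dark, then glutathione donor and nickel acceptor beads were added for 1 h before AlphaScreen reading.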
gsp antagonist: gsp mutant antagonism | 0.4% of 340,000 active | gsp-mutant cells, cAMP HTRF, 30 min; control for the full effect not named in the record | AID 624288 | Potency, µM (top dose mostly 76.9 µM), without a hit: at the top dose activity change, negative = inhibition, hits mostly inhibitors; active = falling curve of any shape with a large fitted effect; inconclusive = falling curve, mostly with a smaller effect; inactive = flat or rising curve; cell line not stated here;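 further: intracellular cAMP measured with PDE inhibitor Ro 20-1724 present during compound exposure; potency means the concentration at half of the fitted maximal effect; on the % scale 0 is the no-effect control and ±100 the full control effect; nearly all actives have a fitted effect of over 65% in size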
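Cells in G418 medium, seeded 16-24 h, 37C; buffer exchange to DPBS + 1 mM CaCl2, 0.5 mM MgCl2, 0.05% BSA; cpds in DMSO + […] (300 uM stock), 30 min 37C; HTRF cAMP detection.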
Six1-Eya2 blk: blocks human Six1 binding to Eya2. AlphaScreen GST-Six1/His-Eya2 binding, biochemical; active compounds read low; control for the full effect not named in the record. 0.56% of 360,000 active. Q15475+O00167. activity change, % (concentration not given with the values); in the data active = activity change below about -65%; inconclusive = about -30% to -65%; inactive = above about -30%; further: on the % scale 0 is the no-effect control and ±100 the full control effect
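AlphaScreen luminescence read after one hour at 37 °C in darkness. Pin-transferred compounds met GST-Six1 and His-Eya2 protein (5X stock 250 nM/500 nM) plus glutathione donor and Ni-chelate acceptor beads (5X, 50 ug/mL).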
gsp ag: activates gsp, the McCune-Albright syndrome mutation; Potency, µM (series often up to 76.9 µM), for the others: at the highest dose activation (cAMP increase), most hits filed as activators; AID 624287; 0.13% of 340,000 active; gsp mutant cells, cAMP HTRF, 30 min; control for the full effect not named in the record; active = well fitted activation curve with a large enough effect; inconclusive = small, poorly fitted or top-dose-only effect, or another doubt; inactive = no such curve, though single readings can be large or run the other way; cell line not stated here;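 further: phosphodiesterase inhibitor Ro 20-1724 added with compounds to block cAMP breakdown; potency means the concentration at half of the fitted maximal effect; nearly all actives have a fitted effect of over 60% in size; about a fifth of the inactives were tested at one dose only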
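Cells in DMEM/10% FBS with G418 were pretreated with compounds in DMSO plus […] (300 uM stock) for 30 min at 37C. cAMP was measured by HTRF (cAMP-d2 plus anti-cAMP antibody-K) after 30 min at room temperature.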
D2 PAM: potentiates the human D2 dopamine receptor allosterically; DiscoveRx D2 beta-arrestin cells, luminescence, 90 min; 100% = 57 uM dopamine signal; 0.23% of 360,000 active; potentiation, % (concentration not given with the values); P14416; active = potentiation of 50% or more; inconclusive = 30% to 50%; inactive = 30% or less;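 further: compound concentration not given in the record; tested on top of an EC20 dose of dopamine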
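PathHunter D2 cells, attached overnight at 37 deg C, received compound in DMSO plus dopamine at EC20 (50 nM final) for 90 min at 37 deg C. Beta-arrestin recruitment was read as luminescence after 1 h with detection reagent at ambient temperature.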
* hit, by the source's call; ? = inconclusive; . = not tested or not shown; [ ] = dose if it differs, or a comment.

item	Structure	D2 ag	CtBP-E1A inh	gsp antagonist
1	CN(CCNC(=O)C1(O)c2ccccc2NC(=O)N1c1ccccc1)Cc1ccccc1 (stereo not drawn)	-2.9	2	14%
2	CS(=O)(=O)N(CC(=O)N1CCc2ccccc2C1)c1ccc(Cl)cc1F	-1.0	-2	5%
3	O=C(C=C(O)c1ccc(Cl)cc1)C(=O)NNC(=O)C(O)(c1ccccc1)c1ccccc1	-2.8	-4	7%
4	Cc1ccc(C)c(N(C(=O)CNC(=O)c2ccco2)C(C(=O)NC2CCCCC2)c2ccncc2)c1 (stereo not drawn)	0.6	1	-10%
5	CC(=O)c1ccc(N2CCN(C(=O)c3nn(Cc4ccccc4)c(=O)c4ccccc34)CC2)cc1	1.6	-1	?
6	Cc1cccc(NCCC(=O)c2ccc(Br)cc2)c1	-1.8	8	-1%
7	Cc1c(Cl)cnc(NC(=O)CSc2nnnn2C)c1Cl	3.1	.	-4%
8	CC1CCCC(C)N1C(=O)CSc1nnc(COc2ccccc2)n1-c1ccccc1 (stereo not drawn)	-0.2	7	-25%
9	COC(=O)C1=CN(C)C=C(C(=O)OC)C1c1ccc(O)c(OC)c1	-2.0	5	-1%
10	Cc1noc(C)c1S(=O)(=O)Nc1ccccc1OC(F)(F)F	-0.3	.	3%

item	Six1-Eya2 blk	gsp ag	D2 PAM
1	-5	-43%[inhibitor]	-39
2	0	24%[15.4 µM]	-4
3	1	27%	-14
4	5	17%	-5
5	-6	?	9
6	-17	?	-7
7	7	?	1
8	0	7%	-7
9	0	4%	-5
10	3	45%	-1

Brought forward from above: 4 compounds; new compounds follow.
item	Structure	D2 ag	CtBP-E1A inh	gsp antagonist
7	Cc1c(Cl)cnc(NC(=O)CSc2nnnn2C)c1Cl	3.1	.	-4%
8	CC1CCCC(C)N1C(=O)CSc1nnc(COc2ccccc2)n1-c1ccccc1 (stereo not drawn)	-0.2	7	-25%
9	COC(=O)C1=CN(C)C=C(C(=O)OC)C1c1ccc(O)c(OC)c1	-2.0	5	-1%
10	Cc1noc(C)c1S(=O)(=O)Nc1ccccc1OC(F)(F)F	-0.3	.	3%
11	O=C(COC(=O)c1ccc2[nH]c3c(c2c1)CCCC3)Nc1ccccc1	0.4	-12	-5%
12	COc1ccc(-n2nc3c(c2NC(=O)c2c(F)cccc2Cl)CS(=O)C3)cc1 (stereo not drawn)	0.5	2	1%
13	Cn1c(SCc2nc3ccccc3[nH]2)nnc1-c1ccccn1	-0.9	-1	16%
14	COc1ccc(N/C=C2/CCCCC2=O)cc1	2.0	1	-1%
15	COc1cc(OC)c(OC)cc1CN1CCN(S(=O)(=O)c2ccc(NC(C)=O)cc2)CC1	-1.6	-1	-6%
16	CC(C)c1ccccc1NC(=O)COC(=O)/C=C/c1cccc([N+](=O)[O-])c1	-1.0	1	-1%
17	Cc1ccc(OCC(=O)Nn2cnc3ccccc32)cc1	-4.0	12	17%
18	Cc1ccccc1N1C(=O)C(Oc2ccc(Cl)cc2)C1CNC(C)(C)C (stereo not drawn)	-4.0	-5	19%
19	COc1ccc(-c2cc(C(=O)N3CCN(c4ccccc4)CC3)no2)cc1	-2.1	-5	-19%
20	CSc1ccc(CN(C)C(=O)COc2ccc(C(=O)c3ccccc3)cc2)cc1	-7.7	0	-24%

item	Six1-Eya2 blk	gsp ag	D2 PAM
7	7	?	1
8	0	7%	-7
9	0	4%	-5
10	3	45%	-1
11	-17	4%[15.4 µM]	-4
12	-7	13%	0
13	-1	?	-10
14	-2	-2%	14
15	-2	-2%[15.4 µM]	-5
16	-4	?	1
17	10	7%	14
18	-3	-32%[inhibitor]	-38
19	-8	4%[15.4 µM]	2
20	0	-1%[15.4 µM]	-3

New compounds follow
item	Structure	D2 ag	CtBP-E1A inh	gsp antagonist
21	CC(=O)Nc1ccc2c3c(cccc13)CC2	-4.1	-25	0%
22	CCn1c(C(C)NS(=O)(=O)c2ccc(Cl)cc2)n[nH]c1=S (stereo not drawn)	6.2	6	11%
23	O=c1[nH]cnc2cc(Cl)ccc12	-2.4	5	1%
24	CN(C)S(=O)(=O)Nc1ccc(NS(=O)(=O)N(C)C)c(S(=O)(=O)c2ccccc2)c1	-2.3	24	-6%
25	CCOc1ccc(NC(=O)CN(C)C(=O)C2CC(=O)N(CCc3ccccc3)C2)cc1OCC (stereo not drawn)	-0.3	-17	12%
26	CC(Sc1ccccc1)C(=O)Nc1ccc(N2CCOCC2)cc1 (stereo not drawn)	-1.0	-6	10%
27	C=C1CC2(OC1=O)c1ccccc1CCc1ccccc12	-7.7	11	23%
28	Cc1cc(NC(=O)CSc2nnc(-c3ccncc3)n2C)n(-c2ccccc2)n1	-2.6	2	8%
29	O=c1c(Cc2ccccc2O)c(O)nc2n1CCCS2	4.6	-4	-18%
30	Cn1nc(C(=O)NC2CCCCCC2)ccc1=O	-1.4	1	3%

item	Six1-Eya2 blk	gsp ag	D2 PAM
21	4	19%	-1
22	2	7%	-9
23	-7	21%	0
24	19	-4%	-10
25	-12	12%	-6
26	2	5%	-7
27	-10	-5%	-21
28	0	-5%[15.4 µM]	-7
29	5	-67%	16
30	0	-31%[inhibitor]	-2

(continued)
item	Structure	D2 ag	CtBP-E1A inh	gsp antagonist
31	CCOC(=O)C1=C(N)N2C(=O)C(C)SC2=C(C(=O)OCC)C1c1ccc(O)cc1 (stereo not drawn)	-4.6	0	-4%
32	O=C(NN=C1CCCCCCCCCCC1)c1ccccc1F	-10	0	6%
33	CCC1CCCCN1CCCNC(=O)C1CCN(c2nnc(-n3cccc3)s2)CC1 (stereo not drawn)	-3.5	.	8%
34	Cc1ccc(C)c(OCc2cc(C(=O)NC(c3ccccn3)C(F)(F)F)no2)c1 (stereo not drawn)	5.4	6	-14%
35	C=C(C)COc1ccc(-c2[nH]ncc2Oc2ccccc2OC)c(O)c1	-0.9	5	-9%
36	Cc1ccc(-c2noc(CCC(=O)N3CCCC3)n2)cc1	1.7	0	0%
37	CCOC(=O)c1cnc(SC)nc1Sc1ccccc1	-5.3	42	-14%
38	COc1ccc(OCCC(=O)OCC(=O)NC2CCCCC2)cc1	-0.6	3	10%
39	O=C(c1ccc(Cl)c(Cl)c1)N1CCN(c2ccccn2)CC1	2.4	-6	3%
40	C=CCc1cccc2cc(C(=O)N3CCN(C(=O)c4ccccc4)CC3)c(=O)oc12	0.8	-7	-47%

item	Six1-Eya2 blk	gsp ag	D2 PAM
31	-16	9%	-8
32	1	-39%	-24
33	6	-5%	0
34	27	10%	24
35	-5	-17%	-7
36	-3	-29%	-6
37	44	14%	-8
38	5	-2%[15.4 µM]	1
39	-12	-6%[15.4 µM]	-2
40	-8	11%[15.4 µM]	-2

Look-ups from the results shown:
Under D2 PAM, entry 31 has -8
Under D2 PAM, entry 38 has 1

(further entries)
item	Structure	D2 ag	CtBP-E1A inh	gsp antagonist
41	Cc1cc(N2CCN(c3cccc(C(F)(F)F)c3)CC2)n2ncnc2n1	-1.9	-1	4%
42	COc1ccc(S(=O)(=O)N2CCCC(C(=O)NC3CC3)C2)cc1Cl (stereo not drawn)	0.3	0	2%
43	O=C(CSc1n[nH]c(-c2ccccc2)n1)NC1CCCCC1	0.4	-14	-2%
44	Cc1ccc(NC(=O)c2c(-c3c(F)cccc3Cl)noc2C)cc1F	0.3	6	-4%
45	CC(=O)NC1(C(=O)O)CCCC1	-2.1	18	11%
46	FC(F)(F)c1ccc(CN2CCCCCC2)cc1	0.8	2	-9%
47	O=C(NCCCn1ccnc1)c1ccc(Cl)c(Cl)c1	-1.3	7	5%
48	O=C(Cc1cccs1)NCCc1ccc(Cl)cc1	-6.7	12	-2%
49	Cc1ccc(NC(=O)N2CCCC2C(=O)Nc2nnc(C(C)C)s2)cc1 (stereo not drawn)	3.3	12	6%
50	Cc1ccc(S(=O)(=O)/N=S(\C)CC2CC2(Cl)Cl)cc1 (stereo not drawn)	-3.9	2	8%

item	Six1-Eya2 blk	gsp ag	D2 PAM
41	-4	12%	5
42	19	-3%[15.4 µM]	2
43	-13	24%	-42
44	6	10%	0
45	-2	-29%[15.4 µM]	-1
46	2	-14%	-1
47	-10	-20%[15.4 µM]	-6
48	6	?	-11
49	7	-8%	-13
50	4	0%	1

Among those listed so far, these contain two or more sulfur atoms.
item	Structure	D2 ag	CtBP-E1A inh	gsp antagonist
22	CCn1c(C(C)NS(=O)(=O)c2ccc(Cl)cc2)n[nH]c1=S (stereo not drawn)	6.2	6	11%
24	CN(C)S(=O)(=O)Nc1ccc(NS(=O)(=O)N(C)C)c(S(=O)(=O)c2ccccc2)c1	-2.3	24	-6%
37	CCOC(=O)c1cnc(SC)nc1Sc1ccccc1	-5.3	42	-14%
50	Cc1ccc(S(=O)(=O)/N=S(\C)CC2CC2(Cl)Cl)cc1 (stereo not drawn)	-3.9	2	8%

item	Six1-Eya2 blk	gsp ag	D2 PAM
22	2	7%	-9
24	19	-4%	-10
37	44	14%	-8
50	4	0%	1

New compounds follow.
item	Structure	D2 ag	CtBP-E1A inh	gsp antagonist
51	CCOc1cc(CNCC(C)C)c(Cl)cc1OCC(=O)Nc1ccccc1	0.8	24	1%
52	CCc1nnc(NC(=O)CSc2nnc3c4ccccc4n(C)c3n2)s1	-0.1	3	1%
53	COc1ccc2[nH]c(=O)c(CN(Cc3cccnc3)S(=O)(=O)c3ccccc3F)cc2c1	-0.6	-28	-8%
54	Cc1ccc(NC(=O)CS(=O)CC(=O)Nc2ccccc2-c2ccc(C)o2)cc1 (stereo not drawn)	-2.3	-7	-2%
55	Cc1nn(Cc2ccccc2)c2c1C(c1cccc(Cl)c1)C(C#N)=C(N)O2 (stereo not drawn)	-4.2	-7	3%
56	CC(=O)Nc1ccc(C(=O)N(C)C(C(=O)Nc2ccccc2)c2ccccn2)cc1 (stereo not drawn)	-3.5	-6	8%
57	O=C(c1ccccc1)N1CCN(Cc2cccc(Oc3ccccc3)c2)CC1	1.4	-8	-16%
58	CC(=O)Nc1ccc(C=NN=C2c3ccccc3-c3ccccc32)cc1	0.2	-24	-13%

item	Six1-Eya2 blk	gsp ag	D2 PAM
51	0	-18%	0
52	-2	?	13
53	-6	?	27
54	-4	-7%	-31
55	-1	19%	-32
56	0	-27%	-20
57	-5	17%	-6
58	-22	23%	-13
